PKD1 inh: inhibitors of human PKD1 kinase, biochemical, fluorescence polarization. PKD1 kinase fluorescence polarization assay. Serine/threonine-protein kinase D1 (Homo sapiens), Q15139. inhibition, %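 (about 10 µM by stock and volumes)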. hit rate 0.056% among 200,000;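 active = inhibition of 50% or more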;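 also: controls were vehicle for no effect and a reference inhibitor for full effect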
GALR2 agonist: GALR2 receptor agonists, primary screen, cell-based. Galanin receptor type 2 (Homo sapiens), O43603. GALR2-expressing cells, agonist activation read-out. activation, %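 (tested at 5 µM)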. hit rate 0.48% among 140,000. AID 803, 2007;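 active = above mean plus 3 SD of all compounds, about 5% in these data, not always enough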;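 also: 0% = vehicle buffer wells and 100% = reference agonist at full effect; tested in CHO reporter cells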
Target sequence (O43603 whole entry, looked up): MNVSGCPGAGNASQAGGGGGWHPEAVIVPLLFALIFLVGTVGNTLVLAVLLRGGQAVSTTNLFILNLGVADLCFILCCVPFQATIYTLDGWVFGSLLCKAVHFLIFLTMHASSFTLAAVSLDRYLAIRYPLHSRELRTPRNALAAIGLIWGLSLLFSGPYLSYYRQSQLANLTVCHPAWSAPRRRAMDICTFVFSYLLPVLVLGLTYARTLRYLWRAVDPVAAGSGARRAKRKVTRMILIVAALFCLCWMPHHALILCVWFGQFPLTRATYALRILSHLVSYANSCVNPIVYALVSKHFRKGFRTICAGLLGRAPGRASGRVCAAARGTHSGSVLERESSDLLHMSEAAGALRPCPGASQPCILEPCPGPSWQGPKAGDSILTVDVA
Insulin prom inh: inhibitors of insulin promoter-driven GFP, primary screen, imaging, TRM-6 cells (human fetal islet line), eGFP reporter, cell count. reporter expression induced with tamoxifen. inhibition, % at 2 µM. hit rate 0.9% among 130,000;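 active = inhibition above the mean plus 3 SD, with well images judged a real hit on visual review, cut at about 60% in these data, passing the limit was not always enough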
HSV replic up: enhancers of HSV replication in host cells, fold increase, host cell viability. HSV replication augmentation in cells. maximum fold increase. hit rate 0.005% among 220,000;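 active = peak rise of 1.5-fold or more in the series; tested in PC3 cells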;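 also: first round at 10 µM; read as green reporter fluorescence; hits show the peak of a series up to 25 µM; 1 = signal of infected wells without compound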
RGS16-Gao HTS: modulators of RGS16 binding to Galphao, primary screen, biochemical, human proteins, multiplexed bead flow cytometry; bead-based flow cytometry RGS16-Galphao binding, fluorescence; actives lie on both sides; binding response (% of control), % at 10 µM; hit rate 0.38% among 220,000; AID 1441, 2008;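 active = below 25% or above 175%, edge rows of some plates excepted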;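 also: Galphao activated by GDP with aluminum fluoride before binding; 100% = wells without compound and 0% = beads without RGS; some results beyond the cut were filed as inactive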
Target sequence (O15492 whole entry, looked up): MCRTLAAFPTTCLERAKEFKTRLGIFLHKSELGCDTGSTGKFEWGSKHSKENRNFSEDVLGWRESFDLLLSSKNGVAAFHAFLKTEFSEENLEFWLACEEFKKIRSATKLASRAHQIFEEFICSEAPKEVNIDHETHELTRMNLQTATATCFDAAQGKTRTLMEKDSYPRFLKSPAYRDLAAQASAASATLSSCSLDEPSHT
Target sequence (P09471 whole entry, looked up): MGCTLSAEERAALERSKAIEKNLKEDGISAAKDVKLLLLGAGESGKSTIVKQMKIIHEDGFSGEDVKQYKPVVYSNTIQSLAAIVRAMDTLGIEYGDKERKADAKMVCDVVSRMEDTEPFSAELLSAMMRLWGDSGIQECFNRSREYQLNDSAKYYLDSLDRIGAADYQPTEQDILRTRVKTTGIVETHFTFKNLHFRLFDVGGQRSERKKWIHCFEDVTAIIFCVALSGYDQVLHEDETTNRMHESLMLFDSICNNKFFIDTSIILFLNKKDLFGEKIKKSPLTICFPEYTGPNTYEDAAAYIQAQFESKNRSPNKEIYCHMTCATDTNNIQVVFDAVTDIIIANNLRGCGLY
Insulin prom inh cell count: second read-out of Insulin prom inh, no call of its own (marks repeat the call); normalized cell count, %; measured here: cell count, toxicity; reference of the scale not given here;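 cells exposed to compound for 48 h; stained nuclei by imaging scaled within each plate; lower means fewer cells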
HSV replic up primary fold: further read-out of HSV replic up, marked with its call; fold increase; compound at 10 µM; measured here: primary screen fold increase 10 uM; tested in PC3 cells;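 GFP signal in the first replicate; 1 = infected wells without compound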
* = called active by the depositor.

`CCN(CC)C(=O)CN1CCC(n2c(C)nc3cc(C(F)(F)F)ccc32)CC1` gave PKD1 inh -3, GALR2 agonist -3.2, Insulin prom inh 0, HSV replic up inactive, RGS16-Gao HTS 99, Insulin prom inh cell count 108 and HSV replic up primary fold 0.98.
For Cc1ccc(C)c(NC(=O)c2cnc3n(c2=O)CCS3)c1 the results were PKD1 inh -1, Insulin prom inh -7, HSV replic up inactive, RGS16-Gao HTS 104, Insulin prom inh cell count 55 and HSV replic up primary fold 1.
`CCOC(=O)N1CCN(C(=O)c2ccc(-n3c(C)ccc3C)cc2)CC1` gave PKD1 inh -1, GALR2 agonist -1.7, HSV replic up inactive, RGS16-Gao HTS 85 and HSV replic up primary fold 0.9.
`C=CCOc1ccc(C2/C(=C(\O)c3c(C)[nH]c(C(=O)OC)c3C)C(=O)C(=O)N2CCN(C)C)cc1` (centres undefined) gave PKD1 inh -2, GALR2 agonist -3.6, Insulin prom inh -41, HSV replic up inactive, RGS16-Gao HTS 115, Insulin prom inh cell count 116 and HSV replic up primary fold 0.95.
Screening O=C(O)C1CSC(c2coc3ccccc3c2=O)N1 (centres undefined) returned PKD1 inh -11, GALR2 agonist -0.4, HSV replic up inactive, RGS16-Gao HTS 108 and HSV replic up primary fold 1.
c1csc(CCNc2ncnc3sc4c(c23)CCC4)c1 was read as PKD1 inh -4, HSV replic up inactive, RGS16-Gao HTS 101 and HSV replic up primary fold 0.44.
`COc1ccc(C2(O)CCN(CC(=O)Nc3nc(-c4ccccc4)cs3)CC2)cc1` gave PKD1 inh -6, Insulin prom inh -58, HSV replic up inactive, RGS16-Gao HTS 106, Insulin prom inh cell count 129 and HSV replic up primary fold 0.72.
For O=C(c1cc(Cl)c(=O)n(Cc2ccccc2)c1)N1CCOCC1 the results were PKD1 inh 7, GALR2 agonist -2.7, Insulin prom inh -36, HSV replic up inactive, RGS16-Gao HTS 103, Insulin prom inh cell count 79 and HSV replic up primary fold 0.87.
Cc1ccc(/C=N/Nc2cccc(C(=O)O)c2)s1 was read as PKD1 inh -11, GALR2 agonist -0.9, Insulin prom inh 18, HSV replic up inactive, RGS16-Gao HTS 92, Insulin prom inh cell count 85 and HSV replic up primary fold 1.1.
For COC(=O)c1sccc1-c1ccc(/C=N/OCc2c(Cl)cccc2Cl)o1 the results were PKD1 inh -8, GALR2 agonist -1.8, Insulin prom inh 20, HSV replic up inactive, RGS16-Gao HTS 98, Insulin prom inh cell count 120 and HSV replic up primary fold 0.91.
Screening Cc1ncc(CN2CCC(CO)(CCc3ccccc3)CC2)s1 returned PKD1 inh -7, HSV replic up inactive, RGS16-Gao HTS 104 and HSV replic up primary fold 1.
For CSCC[C@H](NC(=O)c1nn(C)c(=O)c2ccccc12)c1nc2ccccc2[nH]1 the results were PKD1 inh -5, GALR2 agonist -2.6, Insulin prom inh -22, HSV replic up inactive, RGS16-Gao HTS 91, Insulin prom inh cell count 301 and HSV replic up primary fold 0.94.

Continued; it opens with the 2 that closed the last part.
Screening Cc1ncc(CN2CCC(CO)(CCc3ccccc3)CC2)s1 returned PKD1 inh -7, HSV replic up inactive, RGS16-Gao HTS 104 and HSV replic up primary fold 1.
For CSCC[C@H](NC(=O)c1nn(C)c(=O)c2ccccc12)c1nc2ccccc2[nH]1 the results were PKD1 inh -5, GALR2 agonist -2.6, Insulin prom inh -22, HSV replic up inactive, RGS16-Gao HTS 91, Insulin prom inh cell count 301 and HSV replic up primary fold 0.94.
CN(C)CCOC(C1CCCCC1)C1CCCCC1 was read as PKD1 inh -1, GALR2 agonist -2.3, Insulin prom inh -18, HSV replic up inactive, RGS16-Gao HTS 102, Insulin prom inh cell count 98 and HSV replic up primary fold 0.78.
`O=C(O)c1cccnc1Nc1ccc(Cl)cc1` gave PKD1 inh 1, HSV replic up inactive, RGS16-Gao HTS 99 and HSV replic up primary fold 0.9.
CCN1CCN(c2ccc(NC(=O)CCc3c(C)nc4c(-c5ccc(F)cc5)c(C)nn4c3C)cc2)CC1 was read as PKD1 inh 4, Insulin prom inh -53, HSV replic up inactive, RGS16-Gao HTS 109, Insulin prom inh cell count 107 and HSV replic up primary fold 0.68.
`c1ccc(CSc2nnc3ccc(-c4cccs4)nn23)nc1` gave PKD1 inh -1, HSV replic up inactive, RGS16-Gao HTS 104 and HSV replic up primary fold 0.89.
`Cc1cccc(OCCC(=O)Nc2ccc(F)c(Cl)c2)c1` gave PKD1 inh -11, GALR2 agonist 0.3, Insulin prom inh -11, HSV replic up inactive, RGS16-Gao HTS 101, Insulin prom inh cell count 65 and HSV replic up primary fold 0.95.
Cc1ccccc1OCC(=O)N1N=C(c2cccnc2)CC1(O)C(F)(F)F (centres undefined) was read as PKD1 inh 9, GALR2 agonist 1.4, Insulin prom inh -28, HSV replic up inactive, RGS16-Gao HTS 149, Insulin prom inh cell count 109 and HSV replic up primary fold 0.97.
For COc1ccc(-n2c(Cn3c(=O)sc4ccccc43)nnc2SC)cc1 the results were PKD1 inh -7, GALR2 agonist -0.3, HSV replic up inactive, RGS16-Gao HTS 100 and HSV replic up primary fold 1.4.
`C#CCNC(=O)C1=C[C@H](C)[C@@H](CCCO)[C@H](OCC)O1` gave PKD1 inh -8, HSV replic up inactive, RGS16-Gao HTS 96 and HSV replic up primary fold 0.97.
For S=c1[nH]nc(C2CCCCC2)n1/N=C/c1ccccn1 the results were PKD1 inh -6, HSV replic up inactive, RGS16-Gao HTS 99 and HSV replic up primary fold 0.95.
Screening C=CCn1c(N)cc(=O)nc1SCC(=O)Nc1ccc(C)cc1 returned PKD1 inh -6, Insulin prom inh 9, HSV replic up inactive, RGS16-Gao HTS 108, Insulin prom inh cell count 134 and HSV replic up primary fold 0.92.
For COc1cccc(N2CN(CCc3ccccc3)CNC2=S)c1 the results were HSV replic up inactive, RGS16-Gao HTS 104 and HSV replic up primary fold 0.89.
For CN(c1ccccc1)c1nc(-n2ccnc2)nc(-n2ccnc2)n1 the results were PKD1 inh 2, GALR2 agonist -1.8, Insulin prom inh -33, RGS16-Gao HTS 103 and Insulin prom inh cell count 120.
Cn1c(=O)[nH]c(=O)c2c1nc(Br)n2CC(O)c1ccccc1 (centres undefined) was read as PKD1 inh 7, GALR2 agonist -2.4, Insulin prom inh 26, HSV replic up inactive, RGS16-Gao HTS 110, Insulin prom inh cell count 90 and HSV replic up primary fold 1.1.
Screening Cc1cc(C)c(S(=O)(=O)N2CCCCC2)cc1N(C)S(=O)(=O)c1ccc(Cl)cc1 returned PKD1 inh -23, GALR2 agonist -0.5, Insulin prom inh -43, HSV replic up inactive, RGS16-Gao HTS 101, Insulin prom inh cell count 91 and HSV replic up primary fold 1.1.
For CC(=O)C(Sc1nc(N(C)C)nc(N(C)C)n1)C(=O)Nc1ccccc1 (centres undefined) the results were PKD1 inh -4, Insulin prom inh -29, HSV replic up inactive, RGS16-Gao HTS 98, Insulin prom inh cell count 118 and HSV replic up primary fold 1.1.
`CC(=O)/C=C1\SC(CC(=O)O)C(=O)N1c1ccccc1` (centres undefined) gave PKD1 inh 0, GALR2 agonist -1.8, Insulin prom inh 5, HSV replic up inactive, RGS16-Gao HTS 110, Insulin prom inh cell count 120 and HSV replic up primary fold 0.9.
`CC1(C)CC(=O)C2=C(C1)OC1=C(C(=O)CC(C)(C)C1)C2(C)C` gave PKD1 inh -4, GALR2 agonist -1.0, Insulin prom inh 26, HSV replic up inactive, RGS16-Gao HTS 99, Insulin prom inh cell count 109 and HSV replic up primary fold 0.96.
Screening COc1cc(C2C(C(=O)OC(C)C)=C(C)Nc3ncnn32)cc(OC)c1OC (centres undefined) returned PKD1 inh -8, GALR2 agonist -1.4, HSV replic up inactive, RGS16-Gao HTS 99 and HSV replic up primary fold 0.81.
`COC(=O)c1c(NC(=O)c2cccnc2Cl)sc(C(=O)N(C)C)c1C` gave PKD1 inh -8, GALR2 agonist -1.1, Insulin prom inh 27, HSV replic up inactive, RGS16-Gao HTS 97, Insulin prom inh cell count 96 and HSV replic up primary fold 1.1.
`O=C(CN1CCCN(S(=O)(=O)c2ccc(Br)cc2)CC1)Nc1ccc2cn[nH]c2c1` gave PKD1 inh 2, GALR2 agonist -0.9, Insulin prom inh -80, HSV replic up inactive, Insulin prom inh cell count 116 and HSV replic up primary fold 0.95.
`C=CCNC(=O)c1ccc2c(=O)n(CCCN3CCCC3=O)c(=S)[nH]c2c1` gave PKD1 inh 4, Insulin prom inh 20, HSV replic up inactive, RGS16-Gao HTS 101, Insulin prom inh cell count 97 and HSV replic up primary fold 0.94.
CC(C)=C1C2CCC1C(C(=O)Nc1cc(C)cc(C)c1)C2C(=O)O (centres undefined) was read as PKD1 inh -3, Insulin prom inh 49, HSV replic up inactive, RGS16-Gao HTS 103, Insulin prom inh cell count 113 and HSV replic up primary fold 0.84.
`CCCC(=O)Nc1cc(S(=O)(=O)N(CC)CC)ccc1Cl` gave PKD1 inh 7, GALR2 agonist -2.4, Insulin prom inh 12, HSV replic up inactive, RGS16-Gao HTS 124, Insulin prom inh cell count 65 and HSV replic up primary fold 0.97.
Screening CN1C(=O)c2ccc(NC(=O)CCS(=O)(=O)c3ccccc3)cc2C1=O returned PKD1 inh -7, Insulin prom inh -8, HSV replic up inactive, RGS16-Gao HTS 102, Insulin prom inh cell count 67 and HSV replic up primary fold 1.
O=C(NCC1CC1)[C@@H]1C[C@H]1[C@@H](NP(=O)(c1ccccc1)c1ccccc1)c1ccccc1 was read as PKD1 inh -9, GALR2 agonist -2.8, Insulin prom inh -250, HSV replic up inactive, RGS16-Gao HTS 86, Insulin prom inh cell count 40 and HSV replic up primary fold 0.86.
`COc1ccccc1/C=N/OC(=O)c1ccc(F)cc1` gave PKD1 inh -6, HSV replic up inactive, RGS16-Gao HTS 98 and HSV replic up primary fold 0.99.
`O=C(COC(=O)C1CC(=O)N(Cc2ccccc2)C1)Nc1ccc(Cl)cc1F` (centres undefined) gave PKD1 inh -5, HSV replic up inactive, RGS16-Gao HTS 99 and HSV replic up primary fold 1.1.
Screening Cc1cccc(Nc2nc3c(s2)CCCC3)c1 returned PKD1 inh -4, GALR2 agonist -0.6, Insulin prom inh 41, HSV replic up inactive, RGS16-Gao HTS 105, Insulin prom inh cell count 113 and HSV replic up primary fold 0.91.
COc1ccc(-c2cc(=O)oc3cc(OC(=O)C4CCCCC4)c(Cl)cc23)cc1 was read as PKD1 inh -14, GALR2 agonist 0.5, Insulin prom inh 26, HSV replic up inactive, RGS16-Gao HTS 105, Insulin prom inh cell count 107 and HSV replic up primary fold 0.71.
For COc1ccc(CCN2C(=NC(=O)CC(C)C)SC3CS(=O)(=O)CC32)cc1OC (centres undefined) the results were HSV replic up inactive, RGS16-Gao HTS 105 and HSV replic up primary fold 1.1.
Screening CCOc1ccc(N2C(=O)/C(=C/c3cccs3)N(CC(=O)OC)C2=S)cc1 returned PKD1 inh 3, GALR2 agonist 3.5, Insulin prom inh 4, HSV replic up inactive, RGS16-Gao HTS 101, Insulin prom inh cell count 98 and HSV replic up primary fold 0.9.
Screening C=CCNC(=O)/C=C/c1c(F)cccc1Cl returned PKD1 inh 1, GALR2 agonist -0.7, Insulin prom inh -2, HSV replic up inactive, RGS16-Gao HTS 103, Insulin prom inh cell count 125 and HSV replic up primary fold 0.95.
Screening O=C(CCNS(=O)(=O)c1cccc2nonc12)NC1CCCCC1 returned PKD1 inh 7, HSV replic up inactive, RGS16-Gao HTS 98 and HSV replic up primary fold 0.92.
Cn1cccc1C(=O)NC(=O)COC(=O)c1cc([N+](=O)[O-])ccc1Cl was read as PKD1 inh -5, Insulin prom inh -7, HSV replic up inactive, RGS16-Gao HTS 107, Insulin prom inh cell count 120 and HSV replic up primary fold 0.83.
For CCC(C)(C(=O)NC1CCCC1)N(CC1CCCO1)C(=O)c1ccc2c(c1)OCO2 (centres undefined) the results were PKD1 inh -14, GALR2 agonist -0.7, Insulin prom inh -29, HSV replic up inactive, RGS16-Gao HTS 90, Insulin prom inh cell count 128 and HSV replic up primary fold 1.
`Cc1ccc2nc(N3C(=O)C(O)=C(C(=O)c4ccco4)C3c3cccs3)sc2c1` (centres undefined) gave PKD1 inh -3, GALR2 agonist -1.1, Insulin prom inh 30, HSV replic up inactive, RGS16-Gao HTS 101, Insulin prom inh cell count 52 and HSV replic up primary fold 0.91.
CS(=O)(=O)N(CCc1ccccc1)CC(=O)N1CCN(Cc2ccccc2)CC1 was read as PKD1 inh 4, GALR2 agonist -1.0, Insulin prom inh 43, HSV replic up inactive, RGS16-Gao HTS 103, Insulin prom inh cell count 168 and HSV replic up primary fold 1.

Screens: PubChem, several laboratories
